# AmpC nodet inh: inhibitors of E. coli AmpC beta-lactamase without detergent; AmpC nitrocefin hydrolysis, absorbance 480 nm, no detergent; potencies from a single point are estimates; actives 1.8% (n = 71,000); Potency, µM (titrated, usually from 28.7 µM), for the others: at the top dose activity change, negative = inhibition; P00811; active = falling curve, for most hits resting on a single point; inconclusive = weak or doubtful change; inactive = flat or rising curve; further: % of control where 0% means no effect; about half of the hits show no inhibition at the top dose; a quarter of the inactives give rising signals
# Target sequence (P00811 whole entry, looked up): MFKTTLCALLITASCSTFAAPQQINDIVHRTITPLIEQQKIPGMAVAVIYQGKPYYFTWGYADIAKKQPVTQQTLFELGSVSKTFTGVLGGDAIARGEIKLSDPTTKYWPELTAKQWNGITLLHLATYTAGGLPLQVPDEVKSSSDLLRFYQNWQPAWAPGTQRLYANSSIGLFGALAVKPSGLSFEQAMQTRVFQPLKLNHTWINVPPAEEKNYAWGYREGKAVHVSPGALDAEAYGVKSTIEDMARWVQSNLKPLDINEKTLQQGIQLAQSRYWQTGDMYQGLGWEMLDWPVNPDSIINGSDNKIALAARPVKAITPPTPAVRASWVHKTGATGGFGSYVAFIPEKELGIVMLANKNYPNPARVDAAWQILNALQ
#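 Enzyme, pH 7.0 phosphate. Compound titrations were pre-incubated with AmpC for 15 min at room temperature before nitrocefin (stock 800 uM) addition; product formation was recorded at 480 nm every 20 s for 4 min.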
# The depositor's hits bear a star; ? = inconclusive; & = joins results of further samples; [ ] = remark or other dose. Potency means the concentration at half of the fitted maximal effect. A portion of the library; rates above refer to the full screens.
SMILES,AmpC nodet inh
CCOCCCNC(=O)CSc1ccccc1,0%
Cc1ccc(-c2nn(-c3ccccc3)cc2/C=C(\C#N)c2cccc(C#N)c2)o1,-10%
O=C(NCc1ccco1)Nc1cccs1,-15%
C=CCn1c(SCC(=O)NCCCC)nc2scc(-c3ccco3)c2c1=O,16%
CC(=O)c1c(C)[nH]c(C(=O)OCn2nnc3ccccc3c2=O)c1C,4%
c1ccc2c(N3CCNCC3)nc(-c3ccoc3)nc2c1,12%
CCOc1ccc(C)cc1S(=O)(=O)NC1CCCCC1,8%
CN(CCCC(=O)Nc1ccncc1)S(=O)(=O)c1ccc(Cl)cc1,13%
CCCCc1c(O)nc(SCC(=O)NCC2CCCO2)[nH]c1=O (centres undefined),-6%
CC(=O)c1c(C)[nH]c(C(=O)COC(=O)CNS(=O)(=O)c2ccccc2)c1C,-24%
COc1cccc(NC(=O)N2CCN(c3ccc(C(F)(F)F)cn3)CC2)c1,4%
O=C(NCc1cn2ccsc2n1)c1c(F)cccc1Cl,23%
COc1ccc(C2CC(c3ccc(Br)cc3)Nc3nc(N)nn32)cc1 (centres undefined),102%
COC(=O)c1ccc(CSc2nnnn2Cc2ccccc2)cc1,4%
Cc1ccc(Cn2c(=O)c3ccccc3n3c(SCC(=O)N4CCCCC4C)nnc23)cc1 (centres undefined),85%
COc1cc2c(cc1NC(=O)C1CCCO1)oc1ccccc12 (centres undefined),58%
CC(C)CC(=O)Nc1cccc(-c2cn3ccsc3n2)c1,-14%
CN(C)c1ccc(C2N3CC4(C)CN2CC(C)(C3)C4O)cc1 (centres undefined),5%
COc1ccc(C(=O)Nc2nnc(-c3ccccc3)o2)cc1OC,1%
CCOCCCn1c(=S)[nH]c2cc(C(=O)N3CCN(C)CC3)ccc2c1=O,12%
CCn1c(CSc2nc(C)cs2)nc2cc(S(=O)(=O)N(C)C)ccc21,38%
CCOc1ccccc1N1CCN(S(=O)(=O)c2ccc3c4c(cccc24)C(=O)N3)CC1,18%
COc1ccc(C2NC(c3ccc(OC)c(OC)c3OC)C(C)C(=O)C2C)c(OC)c1OC (centres undefined),21%
COCCN(CCOC)C(=O)CCn1c(=O)oc2ccccc21,-4%

# Given as tab-separated lines: part of the list above
canonical_smiles	AmpC nodet inh
Cc1ccc(Cn2c(=O)c3ccccc3n3c(SCC(=O)N4CCCCC4C)nnc23)cc1 (centres undefined)	85%
COc1cc2c(cc1NC(=O)C1CCCO1)oc1ccccc12 (centres undefined)	58%
CC(C)CC(=O)Nc1cccc(-c2cn3ccsc3n2)c1	-14%
CN(C)c1ccc(C2N3CC4(C)CN2CC(C)(C3)C4O)cc1 (centres undefined)	5%

# The list continues:
SMILES,AmpC nodet inh
CC(Sc1nnc(-c2ccc(Cl)cc2)n1C)C(N)=O (centres undefined),3%
CCCN(CCc1ccccc1)[C@H]1CCc2c(O)cccc2C1,8%
CSc1nnc(-c2ccc(S(=O)(=O)N3CCCC3)cc2)n1C,0%
COc1ccc(OC)c(S(=O)(=O)N2CCCc3ccccc32)c1,12%
COCCn1c(=O)c(-c2cn(C)c3ccccc23)nc2cnc(N3CCNCC3)nc21,67%
N#Cc1nc(Cc2cccc3ccccc23)oc1N1CCC(C(N)=O)CC1,-2%
COC(=O)C1=C(C)C(c2ccc(OC)cc2OC)NC(=O)N1 (centres undefined),10%
CCOc1cc(C2/C(=C(\O)c3cc(C)ccc3C)C(=O)C(=O)N2CCN(C)C)ccc1O (centres undefined),6%
O=C(CCCc1ccccc1)NC1CCSC1=O (centres undefined),1%
Cc1cnc(C(=O)OCC(=O)NC2CCCC(C)C2C)cn1 (centres undefined),-2%
N#CCCN1CCN(S(=O)(=O)c2ccc(C#N)cc2)CC1,-6%
COc1cccc(NC(=O)C2CC(=O)OC23CCOC(C)(C)C3)c1 (centres undefined),-3%

# Compounds listed so far with a halogen:
SMILES,AmpC nodet inh
CN(CCCC(=O)Nc1ccncc1)S(=O)(=O)c1ccc(Cl)cc1,13%
COc1cccc(NC(=O)N2CCN(c3ccc(C(F)(F)F)cn3)CC2)c1,4%
O=C(NCc1cn2ccsc2n1)c1c(F)cccc1Cl,23%
COc1ccc(C2CC(c3ccc(Br)cc3)Nc3nc(N)nn32)cc1 (centres undefined),102%
CC(Sc1nnc(-c2ccc(Cl)cc2)n1C)C(N)=O (centres undefined),3%

# Next section:
SMILES,AmpC nodet inh
CCOC(=O)C1CCCN(S(=O)(=O)c2cccs2)C1 (centres undefined),8%
Cc1nnc(NC(=O)Oc2ccccc2)s1,-14%
COc1ccc(OC)c2[nH]c(=O)c(CCNC(=O)c3cc4ccccc4o3)cc12,109%
CCOc1ccc(-n2c(Cc3cc(=O)[nH]c(=O)[nH]3)nnc2SCc2cccnc2)cc1,4µM*[single pt active]
CCN(CCCNC(=O)CN(C)S(=O)(=O)c1cccc2nsnc12)c1ccccc1,93%
O=C(NC(C(=O)O)c1ccccc1)c1ccc(S(=O)(=O)N2CCOCC2)cc1 (centres undefined),7%
COC(=O)c1cc(NCc2c(F)cccc2Cl)ccc1N1CCOCC1,117%
CC(=O)N1c2c(cc(Br)cc2S(=O)(=O)N2CCN(C(=O)c3ccco3)CC2)CC1C (centres undefined),103%
CC1=CC(=O)C2=C(C)CC[C@@H]3[C@@H](OC(=O)[C@H]3C)[C@H]12,-8%[12.8 µM]
O=C(NC1CCCCC1)c1ccc(N2CCCC2=O)cc1,-9%
CCN(CC)c1ccc(NC(=O)Nc2cccc(C(C)=O)c2)cc1,-5%
CCc1nnc(NC(=O)CSc2nnc(-c3cc4ccccc4cc3O)n2CCOC)s1,-11%
CCOc1ccc(S(=O)(=O)NCCC(=O)OCN2C(=O)c3ccccc3C2=O)cc1,9%
Cc1cccc2sc(NC(=O)C3CCCN(S(=O)(=O)c4cccc5nonc45)C3)nc12 (centres undefined),?
O=C(c1ccncc1)N1CCC2(CC1)CCN(C(c1ccccc1)c1ccccc1)CC2,99%
CCc1ccc(S(=O)(=O)NCCc2cn3ccccc3n2)s1,1%
CC(C)(Oc1ccc(-c2ccco2)cc1)C(=O)O,-3%
COCCNC(=O)CN1c2ccccc2CC1C (centres undefined),29%
CCOc1ccc(NC(=O)C2CCCN(S(=O)(=O)c3c(C)nn(C)c3C)C2)cc1 (centres undefined),61%
Cc1ccc2cc3c(nc2c1)N(Cc1ccco1)CC3,53%
O=C(Nc1ccc2c(c1)OCCO2)C1CCCN(c2ncccn2)C1 (centres undefined),-2%
CCOC(=O)N1CCN(c2nc(C)c3c(n2)CC(C)CC3=O)CC1 (centres undefined),30%
COc1cccc(OCCNC(=O)c2cccc(OC)c2)c1,15%
Cc1ccccc1-n1nnnc1SC1CCOC1=O (centres undefined),4%
COCCNC(=O)c1ccc2c(c1)ncn2-c1ccc(F)c(F)c1,14%
O=C(Cn1cc2c(n1)CCCC2)NCc1cccnc1,-5%
COc1ccc(CCNC(=O)CN2C(=O)c3ccccc3S2(=O)=O)cc1,-8%
COc1cc(OC)cc(C(=O)N2CCN(S(C)(=O)=O)CC2)c1,2%
Cc1ccc(-n2nc(-c3cccs3)cc2C(=O)NCC2CCCO2)c(C)c1 (centres undefined),85%
N/C(CSc1nc(-c2ccccc2)c(-c2ccccc2)o1)=N\O,17%
COc1ccc(CNc2n[nH]c(NCc3ccc(OC)c(OC)c3)n2)cc1OC,-6%
CCNC(=O)CC1C(=O)N(c2ccc(F)cc2)C(=O)N1Cc1ccc(OC)cc1 (centres undefined),5%
O=C(NCN1C(=O)C2C3C=CC(C3)C2C1=O)Nc1nncs1 (centres undefined),-5%
CC1CCc2c(sc3nc(C4CC4)nc(SCC(=O)NCc4ccco4)c23)C1 (centres undefined),-13%
O=C(CCN1C(=O)c2ccccc2C1=O)Nc1ccc(-c2cn3ccsc3n2)cc1,-10%
CN1C(=O)N(C)C2(CC1(C)C)CC(C)(C)N(C)C(=O)N2C,-4%
c1ccc(NCc2nc(-c3ccccc3)no2)cc1,-8%
CCCc1nc(N2CCN(C)CC2)c2sc(=S)n(-c3ccccc3)c2n1,0%
Cn1cnc2c(sc3nc(N4CCOCC4)c4c(c32)CC(C)(C)OC4)c1=O,28%
N=c1n(CCN2CCCCC2)c2ccccc2n1CC(O)COc1ccccc1 (centres undefined),21%
O=C(COc1ccc2ccccc2c1Br)Nn1cnnc1,-2%
CCc1cc(Cl)c(OC)c(C(=O)NC[C@@H]2CCCN2CC)c1O,22%[12.8 µM]
Cc1cccc(OCCn2c(CCCO)nc3ccccc32)c1,89%
Cc1cc(NC(=O)c2ccc(NC(=O)c3cccs3)cc2)no1,-5%
CC(=O)OCC(OC(C)=O)C(OC(C)=O)C(OC(C)=O)C(=O)Nc1ccc(C)cc1 (centres undefined),8%
Cc1cc2c(cc1C)C(=O)NC(C)(C)C2,3%
Cc1nc(N2CCCC2)c2ccsc2n1,-10%
COc1cccc(Cn2c(=O)c(-c3ccc(F)cc3)nc3cnc(OC)nc32)c1,3%
CCc1nc(Sc2nc(C)cc(C)n2)c2oc3ccccc3c2n1,79%
COC(=O)c1nc2n(n1)C(c1cccc(Cl)c1)C1=C(CCCC1=O)N2 (centres undefined),4µM*[single pt active]
COc1cc(NC(=O)Nc2ccccc2OC)c(OC)cc1NC(=O)CN1CCCCC1,106%
Cc1nnc(SCC(=O)NCc2ccc3c(c2)OCO3)[nH]c1=O,-8%
Cc1c(NC(=O)c2cc(-n3cnnc3)ccc2Cl)cccc1-c1nc2ccccc2o1,90%
N#Cc1c(NC(=O)CSc2ncn(-c3ccccc3)n2)sc2c1CCCC2,10%
CCn1c(SCC(=O)Nc2cc(C)ccc2C)nc2c(c1=O)SC(C)C2 (centres undefined),32%
CCSc1nc(C)cc(Oc2ccc(=O)n(C)n2)n1,0%
COC(=O)c1[nH]c2ccccc2c1NC(=O)CN1CCN(c2cccc(OC)c2)C(C)C1 (centres undefined),82%
Oc1ccccc1C1=Nc2ccccc2N=C(c2ccco2)C1,29%
Cn1c(=O)c(C(=O)Nc2cnccn2)c(O)c2ccccc21,-9%
CC(=O)N1CCN(c2ccccc2NC(=O)COc2ccc(Cl)cc2Cl)CC1,126%

# Additional results follow:
SMILES,AmpC nodet inh
Cc1cc2c(cc(C(=O)OC(C(=O)NCc3ccco3)C(C)C)n2C)o1 (centres undefined),48%
CCN(CC)C(=O)CSc1nc2cccnc2n1-c1ccccc1OC,22%
O=C(NC1=NCCS1)C1Cc2ccccc2CN1C(=O)c1ccccc1 (centres undefined),16%
CC1(C)CC(=O)C(C=Nc2ccccc2)=C(O)C1,8%
CC1CCc2c(nc3ncnn3c2N2CC(C)OC(C)C2)C1 (centres undefined),13%
Cn1c(CCNC(=O)c2ccco2)nc2cc(NC(=O)C3CCCCC3)ccc21,20%
CCC(=O)Nc1ccc(NC(=O)c2ccco2)cc1,-4%
C=CCn1c(=O)c2ccccc2n2c(SCC(=O)/C(C#N)=C(\C)N)nnc12,-9%
CCOc1ccccc1CNc1ccc(N2CCOCC2)c(C(=O)O)c1,-7%
CCSc1nnc(Nc2ccccc2)s1,-15%
O=C(CC1(C(F)(F)F)OCCO1)Nc1ccc2c(c1)OCO2,-4%
CCCc1nc2n[nH]c(N)c2c2c1CCC2,17%
COc1ccc(CNc2nc(NCc3ccc(OC)cc3)n(S(C)(=O)=O)n2)cc1,26%
COCC(=O)Nc1c(C(=O)Nc2ccccc2OC)oc2ccccc12,29%
O=C(Cn1cnc2c(nnn2Cc2ccccc2F)c1=O)N1CCN(c2ccccc2)CC1,34%
CCCCCC(=O)Nc1ccc2oc(-c3ccncc3)nc2c1,63%
CC(=O)NCCc1nc2ccccc2[nH]1,-4%
Cn1c(=N)n(CC(O)c2cccc3ccccc23)c2ccccc21 (centres undefined),26%
CC(=O)OCc1cc2cc(C)ccc2[nH]c1=O,-8%
CN1C(C(=O)Nc2ccccn2)=C(O)c2ccccc2S1(=O)=O,-9%
O=C(CN1CCOCC1)N1CCN(S(=O)(=O)c2ccccc2)C1c1ccccc1 (centres undefined),17%
CCOc1ccccc1N(CC(=O)N1CCOCC1)S(=O)(=O)c1ccc(SC)cc1,100%
C=CCn1c(CC#N)nnc1N1CCOCC1,-5%
CCSc1oc(-c2ccco2)nc1S(=O)(=O)c1ccccc1,12%
CCc1cc(=O)oc2cc(OC(C)C(=O)O)c(Cl)cc12 (centres undefined),-6%
O=C(CN(Cc1ccccc1F)C(=O)c1ccco1)NCc1ccc(F)cc1,22%
OC(CCN1CCOCC1)(c1ccc(Cl)cc1)C1CCCCC1 (centres undefined),97%
C[C@@H](Cc1ccc(OCC(=O)O)cc1)NC[C@H](O)c1cccc(Cl)c1,11%&6%
CCS(=O)(=O)N1CCC(C(=O)NCCc2ccc(OC)c(OC)c2)CC1,0%
O=C1CCCC2=C1C(c1cccs1)n1nc(SCc3ccccc3F)nc1N2 (centres undefined),-5%
C=CCSc1nc2c(c(=O)n(C)c(=O)n2C)n1CC,3%
CCn1nnnc1SCC(=O)N(C1CCCCC1)C1CCCCC1,61%
COCCCNC(=O)CC(NS(=O)(=O)c1ccc(Cl)cc1)c1ccco1 (centres undefined),8%

# Compounds from the list above that have bromine:
SMILES,AmpC nodet inh
COc1ccc(C2CC(c3ccc(Br)cc3)Nc3nc(N)nn32)cc1 (centres undefined),102%
CC(=O)N1c2c(cc(Br)cc2S(=O)(=O)N2CCN(C(=O)c3ccco3)CC2)CC1C (centres undefined),103%
O=C(COc1ccc2ccccc2c1Br)Nn1cnnc1,-2%

# Screening data deposited in PubChem BioAssay by National Center for Advancing Translational Sciences (NCATS).
